D2 ag: human D2 receptor agonism in beta-arrestin assay; P14416; activation, % (no concentration beside the values); DiscoveRx PathHunter D2 beta-arrestin, luminescence, 90 min; 100% = 57 uM dopamine signal; hit rate 0.084% among 360,000; AID 624465; in the data active = activation above about 40%; inconclusive = about 15% to 40%; inactive = below about 15%; further: compound concentration not given in the record; the text of the record calls up to 30% inactive
Target sequence (P14416 whole entry, looked up): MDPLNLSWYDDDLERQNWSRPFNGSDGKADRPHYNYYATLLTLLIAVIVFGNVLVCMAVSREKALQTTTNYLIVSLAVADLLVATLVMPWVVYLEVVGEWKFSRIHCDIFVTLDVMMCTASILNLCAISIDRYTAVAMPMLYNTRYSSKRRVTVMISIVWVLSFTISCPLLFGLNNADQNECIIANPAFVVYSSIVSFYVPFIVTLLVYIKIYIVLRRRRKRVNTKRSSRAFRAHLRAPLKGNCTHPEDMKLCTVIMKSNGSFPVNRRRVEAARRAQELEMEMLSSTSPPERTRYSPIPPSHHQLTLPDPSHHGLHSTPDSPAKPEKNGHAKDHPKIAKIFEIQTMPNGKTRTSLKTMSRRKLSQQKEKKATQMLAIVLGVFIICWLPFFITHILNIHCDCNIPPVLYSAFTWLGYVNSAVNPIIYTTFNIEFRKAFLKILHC
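Agonist mode: compounds alone added to overnight-plated D2 PathHunter cells for 90 min at 37 C, with 57 uM final dopamine (EC100) defining full response. Beta-arrestin recruitment detected by chemiluminescent reagent, read after 1 h at ambient temperature.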
CtBP-E1A blk: blocks the CtBP interaction with E1A | activity change, % (test concentration not listed) | AlphaScreen GST-E1A/His-CtBP binding, 1536-well; stronger effect = lower value; control for the full effect not named in the record | hit rate 0.49% among 340,000; in the data active means activity change below about -65%; inconclusive means about -30% to -65%; inactive means above about -30%; further: on the % scale 0 is the no-effect control and ±100 the full control effect; compound concentration not given in the record
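GST-E1A and His-tagged CtBP (125 nM each as 5X stock) were preincubated with pin-transferred compound for 2 h at 37 °C in the dark, then glutathione donor and nickel acceptor beads were added for 1 h before AlphaScreen reading.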
TRPML1 agonist: human mucolipin-1 channel agonism. TRPML1-expressing cells, Ca2+ dye fluorescence, FDSS; host cell line not named in the record; reference of the full effect not given here. activation, % (concentration not given with the values). hit rate 0.12% among 410,000; in the data active = activation above about 50%; inconclusive = about 30% to 50%; inactive = below about 30%; further: 0% is about no effect; the text of the record puts the active cut at 80%
Target sequence (Q9GZU1 whole entry, looked up): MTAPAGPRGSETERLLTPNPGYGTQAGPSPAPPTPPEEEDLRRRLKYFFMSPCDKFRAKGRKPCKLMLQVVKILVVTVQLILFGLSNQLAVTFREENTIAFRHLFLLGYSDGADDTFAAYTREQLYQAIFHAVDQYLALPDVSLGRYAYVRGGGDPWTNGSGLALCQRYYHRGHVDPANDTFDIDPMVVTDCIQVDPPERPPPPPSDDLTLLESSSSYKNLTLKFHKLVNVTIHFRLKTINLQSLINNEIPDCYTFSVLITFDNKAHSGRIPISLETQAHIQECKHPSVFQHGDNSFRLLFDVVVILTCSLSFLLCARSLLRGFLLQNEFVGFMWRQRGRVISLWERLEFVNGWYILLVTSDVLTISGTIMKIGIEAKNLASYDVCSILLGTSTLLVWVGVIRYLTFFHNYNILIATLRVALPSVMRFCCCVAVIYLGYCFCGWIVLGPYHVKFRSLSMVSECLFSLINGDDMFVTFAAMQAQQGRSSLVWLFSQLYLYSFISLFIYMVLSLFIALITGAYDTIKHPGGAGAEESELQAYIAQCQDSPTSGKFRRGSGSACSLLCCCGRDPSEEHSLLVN
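Cells: TRPML1-DL, 1X Tet inducer, ~16 h at 37 degrees C/5% CO2. Dye: ABD Ca8 no-wash + quencher, 45-90 min RT. Read: 10 s baseline, compound add, 110 s agonist phase; 54-4 EC80 (4uM final), 110 s antagonist phase.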
D2 PAM: human D2 receptor positive allosteric modulation | DiscoveRx D2 beta-arrestin cells, luminescence, 90 min; 100% = 57 uM dopamine signal | potentiation, % (no concentration beside the values) | hit rate 0.23% among 360,000; active = potentiation of 50% or more; inconclusive = 30% to 50%; inactive = 30% or less;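 further: compound concentration not given in the record; tested on top of an EC20 dose of dopamine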
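PathHunter D2 cells, attached overnight at 37 deg C, received compound in DMSO plus dopamine at EC20 (50 nM final) for 90 min at 37 deg C. Beta-arrestin recruitment was read as luminescence after 1 h with detection reagent at ambient temperature.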
Six1-Eya2 inh: inhibitors of human Six1/Eya2 interaction | Q15475+O00167 | AlphaScreen GST-Six1/His-Eya2 binding, biochemical; stronger effect = lower value; control for the full effect not named in the record | activity change, % (test concentration not listed) | hit rate 0.56% among 360,000 | AID 651725; in the data active = activity change below about -65%; inconclusive = about -30% to -65%; inactive = above about -30%; further: on the % scale 0 is the no-effect control and ±100 the full control effect; compound concentration not given in the record
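Compounds are tested against tagged Six1 and Eya2 proteins bridged by glutathione donor and nickel acceptor beads; after a one-hour incubation at 37 °C without light, AlphaScreen emission is recorded.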
PINK1 modulator: changes PINK1 expression | PINK1 immunofluorescence, high-content cytometry, 24 h | Potency, µM (doses to about 76.6 µM), inactives show at the top dose activation (PINK1 increase), hits mostly activators | hit rate 0.2% among 410,000; active = well fitted activation curve with a large enough effect; inconclusive = small, poorly fitted or top-dose-only effect; inactive = flat fitted curve, though single readings scatter; cell line not stated here;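 further: potency means the concentration at half of the fitted maximal effect; % of control where 0% means no effect; nearly all actives have a fitted effect of over 65% in size; a mitochondrial uncoupler was the plate control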
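Compound titrations (5 concentrations, 24 h) on a stable cell line; DMSO and CCCP controls. Endpoint: fixed-cell PINK1 immunofluorescence with mitochondrial, cell and nuclear markers, scanned by microplate cytometer.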
* = called active by the depositor; ? = inconclusive; nt = not tested or not shown; & = joins results of further samples; [ ] = another dose, or the depositor's remark.

SMILES	D2 ag	CtBP-E1A blk	TRPML1 agonist	D2 PAM	Six1-Eya2 inh	PINK1 modulator
Cc1ccc(C(=O)Nc2ccccc2C(=O)N2CCOCC2)cc1[N+](=O)[O-]	0.8	-11	0.7	0	1	-0.3%
O=C1N[C@@H](c2ccccc2)COC(=O)[C@@H](Cc2ccc(F)cc2)C/C=C\C[C@@H]1CC(=O)N(CCO)Cc1ccccc1	6.4	-2	-0.2	-18	-6	0.5%
COc1ccc(CC(=O)NCCCSc2ccccc2)cc1OC	-2.0	2	0.1	-7	10	0.4%
COc1n[nH]c(C(=O)Nc2cc(Cl)ccc2Cl)c1[N+](=O)[O-]	-7.2	-6	2.3	-3	6	-0.1%
CCOc1ccc(NC(=O)c2cc(OC)nc3ccccc23)cc1	-4.2	1	0.3	-11	-8	17%
NS(=O)(=O)c1ccc(CCNCc2ccccc2OCc2ccc(F)cc2)cc1	-5.9	-9	-1.5	-14	-15	0.6%
Cc1ccc(S(=O)(=O)NCCC(=O)NCCc2ccc(S(N)(=O)=O)cc2)cc1C	-1.2	nt	-0.5	-6	11	0.7%
CCCCCCCCS(=O)C1CS(=O)(=O)CC1O (stereo unspecified)	-4.9	nt	0.7	0	4	0.1%
CCOc1ccccc1-n1c(C)nc2cc(C(=O)O)ccc21	0.6	0	-0.4&-0.2	13	-6	0.9%&-1.2%
COc1ccc(N2CCOCC2)c(NC(=O)c2cccc3ccccc23)c1	-1.0	nt	nt	0	2	2.2%
Cc1cccn2cc(CCNC(=O)Cc3cccs3)nc12	7.5	7	0.0	0	5	1.4%
CCOC(=O)c1c(C2COc3ccccc3O2)csc1N (stereo unspecified)	1.8	-12	-0.1	2	-10	10%[38.3 µM]
COC(=O)C(CC(=O)c1ccc(Cl)cc1)c1ccccc1 (stereo unspecified)	-5.3	12	4.2	-18	32	?
Cc1cc(C)cc(N=c2c([N+](=O)[O-])nn(-c3cccc(Cl)c3)n2O)c1	8.6	?	1.4	97*	?	13%[38.3 µM]
CCOc1ccc2c(c1)[nH]c(=S)n2C	-4.0	1	nt	-4	4	0.9%
COC(=O)c1cc(NC(=O)CC2NCCNC2=O)cc(C(=O)OC)c1 (stereo unspecified)	-1.5	3	0.6	6	-2	6.7%[38.3 µM]
Cc1sc(C(C2C(=O)CC(C)(C)CC2=O)C2C(=O)CC(C)(C)CC2=O)cc1[N+](=O)[O-]	9.0	nt	0.1	-10	1	1.9%
CC1(C(=O)O)CCC(C(=O)Nc2cccc(F)c2)C1(C)C (stereo unspecified)	0.3	-3	-0.2	1	4	2.8%
C=CC[C@H](CC(=O)NCCO)C(=O)NC[C@@H](OC(=O)[C@H](CC=C)CC(=O)OC(C)(C)C)c1ccccc1	-0.8	9	0.1	2	14	0.9%
COc1ccc(CCn2c(NCCCN3CCOCC3)nc3c2c(=O)[nH]c(=O)n3C)cc1	0.5	-2	1.0	-7	-2	-0.1%
Cc1ccc(-n2nnnc2SCC(=O)Nc2ccccc2N2CCCCC2)cc1C	-3.3	3	0.7	22	-17	-2.4%
Cc1ccc(/C=C/C(=O)NCc2ccc(S(N)(=O)=O)cc2)o1	1.2	-18	-0.5	2	-13	-0.1%
COc1ccc2cc(C(=O)O)ccc2c1	0.2	-10	-0.3	-4	8	-3.2%
CCOC(=O)c1c(NC(=S)N2CCCCC2)sc2c1CCN(C(=O)OCC)C2	-3.4	-2	2.4	-7	-17	10%
CCN(CC)C(=O)C1=C(C)N(CCCOC)C(=O)C(CC(=O)NCc2cccc3ccccc23)C1 (stereo unspecified)	-8.0	2	-0.5	0	5	3.2%
Clc1ccc(Nc2ccc3ccccc3n2)cc1	0.2	nt	1.0	-6	25	?
COC(=O)c1nc(N)sc1C	-2.5	-17	3.0	-9	6	-0.8%
Cc1cc(/C=C(\C#N)C(=O)Nc2ccccc2F)c(C)[nH]1	-2.6	11	-1.0	-41	5	12%
Cc1ccc(NC(=O)Cn2nc(C(=O)O)c3ccccc3c2=O)c([N+](=O)[O-])c1	0.1	6	2.0	2	-4	13%
O=C(Cc1cccc(NC(=O)C2CCCN(C(=O)C3CCC3)C2)c1)Nc1ccc(C(=O)N2CCCCC2)cc1 (stereo unspecified)	-2.0	-5	-0.3	-6	1	0.8%
Cn1cnnc1SCC(=O)Nc1ccc(F)cc1	0.3	6	-0.5	-4	22	3.5%
c1ccc(-c2nnc(SCCC3OCCCO3)o2)cc1	5.0	11	0.5	4	8	-1.3%
Nc1ccc2c(c1)[nH]c(=O)c1ccccc12	-1.3	15	0.0	-4	-9	-4.5%
CC(=O)c1cnc(SCc2ccc(Cl)cc2)nc1C	-0.2	24	-0.1	13	13	0.9%
CCOc1nc(SCCOc2ccc(Cl)cc2Cl)nc(N(C)C)n1	-3.9	67	2.5	-15	58	5.6%
CCN(C(=O)CSc1nc2cc(C(=O)O)ccc2c(=O)n1Cc1ccccc1)c1ccccc1	-6.0	1	nt	-7	-3	-0.7%
O=C(CCN1CCCCCC1)c1ccccc1	-1.8	-3	-0.5	0	-1	-1.0%
COc1cccc(C2NC(CC(C)C)(C(=O)O)C3C(=O)N(Cc4ccccc4)C(=O)C23)c1O (stereo unspecified)	-2.3	1	-0.6	-8	-3	2.3%[38.3 µM]
CCn1c(=O)cc(OCC(=O)N2CCN(C(=O)c3ccco3)CC2)c2ccccc21	2.0	2	-0.1	0	1	-6.0%[38.3 µM]
Cc1ccc(S(=O)(=O)N2C(=O)CCC2C(=O)O/N=C(\N)c2ccccc2)cc1 (stereo unspecified)	3.8	0	1.4	9	0	2.4%
CNS(=O)(=O)c1cccc(C(=O)Nc2cccnc2)c1	-3.4	0	-0.3	-4	8	3.9%
CC(C)NC(=O)CSc1nnc2sc3ccccc3n12	-1.7	8	0.2	6	3	-3.6%[38.3 µM]
CCOc1ccc(C(=O)Nc2ccccc2NC(C)=O)cc1OCC	-0.3	-2	0.5	-9	3	-1.5%
CCCc1nnc(NC(=O)c2cccnc2)s1	-4.5	nt	-0.3	-16	3	0.8%
CCOC(=O)N1CCC(NS(=O)(=O)c2ccc3c(c2)CCN3C(C)=O)CC1	-2.1	3	-0.2	-16	-1	-1.5%

Filtered by structure, the entries above containing fluorine.
SMILES	D2 ag	CtBP-E1A blk	TRPML1 agonist	D2 PAM	Six1-Eya2 inh	PINK1 modulator
O=C1N[C@@H](c2ccccc2)COC(=O)[C@@H](Cc2ccc(F)cc2)C/C=C\C[C@@H]1CC(=O)N(CCO)Cc1ccccc1	6.4	-2	-0.2	-18	-6	0.5%
NS(=O)(=O)c1ccc(CCNCc2ccccc2OCc2ccc(F)cc2)cc1	-5.9	-9	-1.5	-14	-15	0.6%
CC1(C(=O)O)CCC(C(=O)Nc2cccc(F)c2)C1(C)C (stereo unspecified)	0.3	-3	-0.2	1	4	2.8%
Cc1cc(/C=C(\C#N)C(=O)Nc2ccccc2F)c(C)[nH]1	-2.6	11	-1.0	-41	5	12%
Cn1cnnc1SCC(=O)Nc1ccc(F)cc1	0.3	6	-0.5	-4	22	3.5%

Continued:
SMILES	D2 ag	CtBP-E1A blk	TRPML1 agonist	D2 PAM	Six1-Eya2 inh	PINK1 modulator
Cc1ccc(N2CC3=C(C2=O)C(c2ccccc2)NC(=O)N3C)cc1 (stereo unspecified)	-2.9	1	-0.3	-16	-11	?
CC(CC(c1ccccc1)N1CCc2ccccc2C1)=NO (stereo unspecified)	-2.7	3	0.1	-17	-2	0.2%
CCOC(=O)c1ccc(S(=O)(=O)N2CCN(CC(O)COc3ccc(C#N)cc3)CC2)cc1 (stereo unspecified)	-0.1	-5	1.3	0	-3	1.4%
O=C(NCc1ccco1)c1cccc(F)c1	2.6	-4	-0.4	7	1	2.5%[38.3 µM]
CN(C)CCNc1ncnc2c1ncn2[C@H]1CN(Cc2cccs2)C[C@@H](CO)O1	-4.4	-2	-0.7	-7	-8	2.2%
CN(C)c1ccc(/C=N/NC(=O)C(=O)N2CCCCCC2)cc1	2.3	0	2.3	-2	-12	1.8%
CCOC(=O)C(CC)(CCC(=O)O)c1csc(Nc2ccc(C)cc2)n1 (stereo unspecified)	1.6	12	0.4	0	2	0.5%
O=C(NCC1CCCO1)C(=O)NCC1CCCN1S(=O)(=O)c1ccccc1 (stereo unspecified)	-4.5	8	-0.6	-9	-2	0.3%
COc1ccc(S(=O)(=O)N2CCOCC2)cc1NC(=O)Cc1ccc(Cl)c(Cl)c1	-2.8	12	0.3	-33	2	?
CCOC(=O)C(C(=O)Nc1nc2ccccc2s1)C1CCCCC1 (stereo unspecified)	0.5	4	2.4	-2	6	1.7%
CCc1ccc(C(=O)N2CCN(c3ccc(NC(=O)c4cccnc4)cc3)CC2)cc1	-2.3	-4	-0.5	19	2	-0.7%
COc1ccc(-c2csc(C(NC(C)=O)c3ccc(F)c(F)c3)n2)cn1 (stereo unspecified)	-3.1	1	-0.6	-2	-4	0.1%
Cc1ccccc1OCCC(=O)Nc1ccccc1C(=O)N1CCCCC1	0.1	-9	-0.2	-11	7	-0.9%
O=C(N/N=C/c1ccccc1)C(O)c1ccccc1 (stereo unspecified)	-0.9	-12	-0.1	-5	4	0.0%
CN(C)CCNC(=O)c1cccc2nc3cccc(F)c3nc12	-4.2	-15	0.6	-24	-11	0.0%

Next section, overlapping the part above by 6 compounds.
SMILES	D2 ag	CtBP-E1A blk	TRPML1 agonist	D2 PAM	Six1-Eya2 inh	PINK1 modulator
CCOC(=O)C(C(=O)Nc1nc2ccccc2s1)C1CCCCC1 (stereo unspecified)	0.5	4	2.4	-2	6	1.7%
CCc1ccc(C(=O)N2CCN(c3ccc(NC(=O)c4cccnc4)cc3)CC2)cc1	-2.3	-4	-0.5	19	2	-0.7%
COc1ccc(-c2csc(C(NC(C)=O)c3ccc(F)c(F)c3)n2)cn1 (stereo unspecified)	-3.1	1	-0.6	-2	-4	0.1%
Cc1ccccc1OCCC(=O)Nc1ccccc1C(=O)N1CCCCC1	0.1	-9	-0.2	-11	7	-0.9%
O=C(N/N=C/c1ccccc1)C(O)c1ccccc1 (stereo unspecified)	-0.9	-12	-0.1	-5	4	0.0%
CN(C)CCNC(=O)c1cccc2nc3cccc(F)c3nc12	-4.2	-15	0.6	-24	-11	0.0%
O=C(CSc1ccccc1)N1CCN(c2ccccn2)CC1	5.2	-15	-0.2	-2	-7	9.0%
S=C1SCN(Cc2ccco2)CN1Cc1ccco1	-5.5	-2	1.3	-1	-7	-0.2%
CN(C)c1ccc(NC(=O)c2cccc(C(=O)Nc3ccc(N(C)C)cc3)n2)cc1	-5.0	?	0.0	-13	?	10%
O=C(NCC(=O)N(c1ccccc1F)C(C(=O)NCC1CCCO1)c1ccccc1)c1ccco1 (stereo unspecified)	-5.0	-5	0.4	9	-13	2.1%
Cc1ccc(S(=O)(=O)N(C)CC(=O)Nc2ccccc2N2CCCC2)cc1	-1.5	-5	2.2	1	-12	0.9%
COc1ccccc1NS(=O)(=O)c1cccc(C(=O)NNC(=O)C(C)NC(=O)c2ccco2)c1 (stereo unspecified)	5.4	7	-0.1	-4	7	-0.9%
COc1ncccc1-c1nnn(-c2ccc(Cl)nc2)n1	1.7	-2	-0.7	0	-3	1.2%
COc1ccc(C(=O)NCc2nnc(SCC(=O)Nc3nc4ccccc4s3)o2)cc1	0.5	-1	3.6	-6	-3	19%

Outcome played no part in choosing rows; about 1.3% have a hit in one of these screens.
